GIRK2 activ: opens human GIRK2 potassium channels; HEK293-GIRK2 thallium flux, Thallos fluorescence; calls only for hits at 25 µM; AID 1259325; actives 0.05% (n = 63,000);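 active = among the strongest 0.2% of first-round signals and kept after retests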;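 note: first round at about 10 µM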
Target sequence (P48051 whole entry, looked up): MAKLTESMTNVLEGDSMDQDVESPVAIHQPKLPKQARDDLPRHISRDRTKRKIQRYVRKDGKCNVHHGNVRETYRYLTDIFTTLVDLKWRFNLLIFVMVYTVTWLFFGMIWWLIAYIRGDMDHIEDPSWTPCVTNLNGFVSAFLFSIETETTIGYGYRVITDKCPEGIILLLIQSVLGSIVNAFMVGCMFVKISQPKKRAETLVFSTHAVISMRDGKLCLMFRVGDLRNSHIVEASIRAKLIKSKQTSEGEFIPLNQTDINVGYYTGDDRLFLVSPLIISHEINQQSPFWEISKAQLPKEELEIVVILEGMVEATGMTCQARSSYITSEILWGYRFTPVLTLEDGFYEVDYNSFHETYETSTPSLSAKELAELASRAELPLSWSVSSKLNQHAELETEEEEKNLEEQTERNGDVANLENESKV
Calls only; i = inactive. Only part of the results is shown; the hit share may differ from the screen's.

GIRK2 activ	Molecule
i	OC(CNC1CCCCC1)COc1ccc(Cl)cc1Cl (centres undefined)
i	Cc1c(Cl)cccc1NC(=O)CSc1nc2c(oc3ccccc32)c(=O)n1Cc1ccco1
i	Cc1ccc(C2=NC3(CCN(CC(=O)Nc4ccccc4Cl)CC3)NC2=O)cc1
i	CCOC(=O)c1ccc([N+](=O)[O-])c(N)c1
i	O=C(COc1ccccc1)NCC#CCN1CCOCC1
i	O=C(Cc1cccc2ccccc12)NCCCOc1cccc2cccnc12
i	CCCN1CCCc2cc(CCNC(=O)C(=O)Nc3cc(C)ccc3C)ccc21
i	CC(=O)Oc1ccc2c(c1)O/C(=C\c1ccncc1)C2=O
i	CCOc1ccc(C(=O)Nc2cc(-n3c(C)nc4ccccc4c3=O)ccc2F)cc1
i	CNC(=O)c1cccc(C#Cc2cncnc2Nc2ccc(OCc3cccc(F)c3)c(Cl)c2)c1
i	COc1ccc2c(c1)O/C(=C\C=C\c1ccccc1OC)C2=O
i	COc1cccc(C(=O)Nc2cc3c4c(c2)CCC(=O)N4CCC3)c1
i	O=C(Cn1nc2c(c1NC(=O)c1ccc3c(c1)OCO3)CSC2)NCc1ccccc1
i	COc1ccc(C2=NS(=O)(=O)c3cc(S(=O)(=O)N4CCOCC4)ccc3N2)cc1
i	COc1ccc(S(=O)(=O)N2CCCc3cc(NC(=O)Nc4ccccc4)ccc32)cc1
i	Cc1cc(OCC(=O)Nc2ccc(C)c(C)c2)nc(N2CCCCC2)n1
i	CN(CCO)CC1COCCN1C(=O)c1ccco1 (centres undefined)
i	COc1ccc(CC(=O)Nc2ccc3c(c2)CCCN3S(=O)(=O)c2ccc(C)cc2)cc1
i	Cc1cc(O)c(C2OC(=O)c3ccccc32)c(=O)n1Cc1ccccc1 (centres undefined)
i	COc1cc2ncn(-c3cc(O[C@@H](C)c4ccccc4Cl)c(C(N)=O)s3)c2cc1OC
i	O=C(C1c2ccccc2Oc2ccccc21)N1CCN(Cc2nnnn2-c2ccc(Cl)cc2)CC1
i	CSc1nccn2nc(-c3ccc(Br)cc3)cc12
i	COc1ccccc1Oc1coc2c3c(ccc2c1=O)OCN(CC1CCCO1)C3 (centres undefined)
i	O=C(CCn1ccc(=O)[nH]c1=O)NCC1CCC(c2nc3ccccc3[nH]2)CC1 (centres undefined)
i	CCOc1ccc(-c2cc3c(=O)n(CC(=O)NCc4ccccc4Cl)ccn3n2)cc1
i	COc1ccc(-c2noc(-c3nnn(-c4cc(Cl)c(OC)cc4OC)c3C)n2)cc1
i	Cc1c(Cl)cccc1NC(=O)C(=O)NC(c1ccccc1)c1ccccc1
i	NS(=O)(=O)c1ccc(NC(=O)CSc2nnc(-c3ccccc3)o2)cc1
i	Cc1ccc(Sc2nccn3c(=O)n(CC(=O)Nc4ccccc4C)nc23)c(C)c1
i	COc1ccc(OC)c(NC(=O)c2ccc(N3C(=O)c4ccccc4C3=O)cc2)c1
i	COc1ccccc1NCCCn1c(C)cn2c3c(=O)n(C)c(=O)n(C)c3nc12
i	COc1nc2ccccc2nc1N1CCN(Cc2ccc3c(c2)OCO3)CC1
i	O=C(Nc1nc(-c2cc3ccccc3o2)cs1)C1COc2ccccc2O1 (centres undefined)
i	COc1ccc(CCNC(=O)N2CCC(Oc3ccc(C#N)cn3)CC2)cc1
i	COC(=O)c1ccc(CSc2nnc(C)c3cnn(-c4ccccc4)c23)o1
i	CCC(=O)N(CC1CCCO1)c1nc2c(OC)ccc(OC)c2s1 (centres undefined)
i	C=C(C)Cn1c(=O)c2c(nc3n(-c4ccc(OC)cc4OC)c(-c4ccccc4)cn23)n(C)c1=O
i	COC(=O)c1ccccc1NC(=O)Cn1ccn2nc(-c3ccc(OC)cc3)cc2c1=O
i	COc1ccc(Cn2cnc3c4ccccc4n(CC(=O)NC4CCCCC4)c3c2=O)cc1
i	Cc1c(NC(=O)C23CC4CC(C)(CC(C)(C4)C2)C3)c(=O)n(-c2ccccc2)n1C

Given with tabs: 15 of the compounds above.
SMILES	GIRK2 activ
OC(CNC1CCCCC1)COc1ccc(Cl)cc1Cl (centres undefined)	i
Cc1c(Cl)cccc1NC(=O)CSc1nc2c(oc3ccccc32)c(=O)n1Cc1ccco1	i
Cc1ccc(C2=NC3(CCN(CC(=O)Nc4ccccc4Cl)CC3)NC2=O)cc1	i
CCOC(=O)c1ccc([N+](=O)[O-])c(N)c1	i
O=C(COc1ccccc1)NCC#CCN1CCOCC1	i
O=C(Cc1cccc2ccccc12)NCCCOc1cccc2cccnc12	i
CCCN1CCCc2cc(CCNC(=O)C(=O)Nc3cc(C)ccc3C)ccc21	i
CC(=O)Oc1ccc2c(c1)O/C(=C\c1ccncc1)C2=O	i
CCOc1ccc(C(=O)Nc2cc(-n3c(C)nc4ccccc4c3=O)ccc2F)cc1	i
CNC(=O)c1cccc(C#Cc2cncnc2Nc2ccc(OCc3cccc(F)c3)c(Cl)c2)c1	i
COc1ccc2c(c1)O/C(=C\C=C\c1ccccc1OC)C2=O	i
COc1cccc(C(=O)Nc2cc3c4c(c2)CCC(=O)N4CCC3)c1	i
O=C(Cn1nc2c(c1NC(=O)c1ccc3c(c1)OCO3)CSC2)NCc1ccccc1	i
COc1ccc(C2=NS(=O)(=O)c3cc(S(=O)(=O)N4CCOCC4)ccc3N2)cc1	i
COc1ccc(S(=O)(=O)N2CCCc3cc(NC(=O)Nc4ccccc4)ccc32)cc1	i

(listing goes on)
GIRK2 activ	Molecule
i	COc1ccc(-n2c(-c3ccc(F)cc3)cn3c4c(=O)[nH]c(=O)n(C)c4nc23)c(OC)c1
i	CCOC(=O)N1CCN(C(=O)c2nnn(-c3ccc(F)cc3)n2)CC1
i	CCOCCn1c(-n2nc(C)cc2C)nc2c1c(=O)n(CC(=O)OC)c(=O)n2C
i	C=CCn1c(N2CCN(CC(N)=O)CC2)nc2c1c(=O)[nH]c(=O)n2C
i	O=C(/C=C/c1ccsc1)NCC1CCN(S(=O)(=O)c2cccnc2)CC1
i	COc1ccccc1C(=O)Oc1ccc2c(c1)O/C(=C\c1ccncc1)C2=O
i	Cc1cc(C)nc(Nc2nc(CC(=O)Nc3nc(-c4ccco4)cs3)cs2)n1
i	Cn1nc(C(=O)Nc2nc3ccccc3s2)ccc1=O
i	O=C(NCCOc1cc(N2CCCC2)ncn1)c1ccc(=O)[nH]c1
i	CCCCCn1c(=O)c2ccccc2n(Cc2nc(-c3ccc(F)cc3)no2)c1=O
i	CC(C)(C)OC(=O)COC(=O)c1cn(-c2ccc(F)cc2)c(=O)c2ccccc12
i	Cc1ccc(CNC(=O)CN2C(=O)N(c3ccccc3C)S(=O)(=O)c3ccccc32)cc1
i	O=C(Nc1ccc2c(c1)OCO2)N(CCc1cccs1)Cc1cccnc1
i	COC(=O)Cn1c(=O)c2c(nc(-n3nc(C)c(C)c3C)n2Cc2ccccc2)n(C)c1=O
i	CC(C(=O)NC1CCSC1=O)n1nc(-n2cccn2)ccc1=O (centres undefined)
i	Cc1ccc2c(Nc3ccc(S(C)(=O)=O)cc3)c(C(=O)N3CCOCC3)cnc2n1
i	O=C(c1ccc(Br)o1)N1CCN(c2cc(-n3cccn3)ncn2)CC1
i	O=C(NC1CCCCCC1)c1snc(-c2ccccn2)c1NC(=O)C1CC1
i	C=CCSc1nnc(-c2ccccc2NC(=O)c2ccc(C)c(S(=O)(=O)N3CCCCC3)c2)o1
i	COc1ccccc1-c1ccc(N2CCN(C(=O)Nc3ccc(Cl)cc3)CC2)nn1
i	CC(C)CNC(=O)c1c(N)n(/N=C\c2cccnc2)c2nc3ccccc3nc12
i	COc1ccc(CC(=O)Nc2ccc3c(c2)CCCN3S(=O)(=O)c2ccccc2)cc1
i	C=C(C)Cn1c(=O)c2c(nc3n(-c4ccc(OC)cc4)c(C)cn23)n(C)c1=O
i	O=C(NCCc1ccccc1Cl)c1ccc(Cn2c(=O)[nH]c3ccccc3c2=O)cc1
i	COc1ccc(CNC(=O)Cn2cccc(-c3nc(-c4ccc(Br)cc4)no3)c2=O)cc1
i	Cc1ccc(S(=O)(=O)N2C(C)CCCC2C)c(C)c1 (centres undefined)
i	Cc1cc(C)n(C(=O)c2sccc2S(=O)(=O)N2CCN(c3ccccc3)CC2)n1
i	COc1ccc(NC(=O)N(CCc2cccs2)Cc2ccoc2)c(OC)c1
i	COc1ccc(N=c2oc3c(C)ncc(CO)c3cc2C(N)=S)cc1
i	O=C(NCc1ccccc1)c1nnn(-c2ccc(Cl)cc2)c1-c1cccnc1
i	CC1CCCCC1NC(=O)C1CCN(c2ccc(=O)n(C)n2)CC1 (centres undefined)
i	CCN(CC)CCCN1C(=O)c2oc3cc(OC)ccc3c(=O)c2C1c1ccccc1 (centres undefined)
i	O=C(c1ccco1)N1CCC(Cn2c(COc3ccccc3)nc3ccccc32)CC1
i	CN(C)c1ncc(NC(=O)/C=C/c2ccco2)cn1
i	COc1ccc(NC(=O)c2cn(Cc3ccc(NC(=O)c4ccccc4OC)cc3)cn2)cc1OC
i	Cc1nnsc1C(=O)Nc1cnc(N2CCCC2)nc1
i	Cn1c(=O)[nH]c2c(C(=O)N3CCC(Cc4ccccc4)CC3)snc2c1=O
i	O=C(Cn1nc2c(c1NC(=O)C(=O)c1c[nH]c3ccccc13)CSC2)NCc1ccccc1
i	COc1ccc(C(=O)NC2=N/C(=C(/C#N)C(=O)NCc3ccccc3)c3ccccc32)cc1
i	CCOC(=O)C1CCCN(CC(O)COc2ccccc2)C1 (centres undefined)
i	Cc1cc(C)n(-c2ccc(C(=O)N(Cc3ccccc3)c3ccccc3)nn2)n1
i	CN(C)S(=O)(=O)c1ccc(C(=O)N2CCC(CSc3nccn3C)CC2)cc1
i	Cc1cccc(N2CCn3c2nc2c3c(=O)n(CCCO)c(=O)n2C)c1C
i	COc1ccc(C)cc1-n1c(-c2ccccc2)cn2c3c(=O)n(CC(N)=O)c(=O)n(C)c3nc12
i	CCOc1ccc(-n2nnc3c(=O)n(Cc4nc(-c5ccc(OC)c(OC)c5)no4)cnc32)cc1
i	O=C(CCn1cnc2ccccc2c1=O)N1CCC(c2nnc(C3CC3)o2)CC1
i	COc1ccc(C)c2sc(N(CCCn3ccnc3)C(=O)/C=C/c3cccs3)nc12
i	O=C(CN1CC(c2nc(-c3cccc(Cl)c3)no2)C1)NC1CCCCC1
i	Cc1cc(NC(=O)COc2ccc(-n3cccn3)nn2)no1
i	CCCCC[C@](C)(O)/C=C/[C@@H]1[C@@H](C/C=C\CCCC(=O)O)[C@@H](O)C[C@H]1O
i	COc1ccc(N(C)S(=O)(=O)c2ccc(Cl)cc2)cc1
i	Cc1noc(CNS(=O)(=O)c2ccc3c(c2)OCCO3)n1
i	C[C@H]1CC(O)C[C@H](C[C@H]2Cc3cc(O)cc(O)c3C(=O)O2)O1 (some centres undefined)
i	COc1cccc(-c2noc(C3CCN(S(=O)(=O)c4ccccc4)CC3)n2)c1
i	CC1=C2O[C@]3(O)C=C2C(=C(O)C1=O)[C@@H]1O[C@H](CC[C@H](C)/C=C(\C)C[C@@H](C)C[C@@H]3C)[C@H](C)[C@H](O)[C@H]1C
i	NC(=O)c1ccccc1OCC#CCNC(=O)CSCc1ccccc1
i	COc1nn(C)cc1C(=O)N1CCc2nc(NC(=O)c3cc(C)on3)sc2C1
i	Cc1cc2nn(CC(=O)NCc3ccc4c(c3)OCO4)c(=O)n2c(Nc2ccccc2C)n1
i	CCCN1CCN(c2cc3c(cc2F)c(=O)c(S(=O)(=O)c2ccc(OC)cc2)cn3C)CC1
i	O=C(Nc1nc(-c2ccccn2)cs1)C1CCN(S(=O)(=O)c2ccc(Cl)cc2)CC1

New compounds follow:
GIRK2 activ	Molecule
i	Cc1nc(C)c(-c2nnc(NC(=O)c3ccc4c(c3)OCO4)o2)s1
i	CCOC(=O)Cn1c(C)cn2c3c(=O)n(CCCc4ccccc4)c(=O)n(C)c3nc12
i	CC1(C)OCC2(CO1)CN(C(=O)CCn1ccc(=O)[nH]c1=O)C2
i	COCCc1nnc(NC(=O)c2cccc(SC)c2)o1
i	CC(O)(CCc1ccccc1)CNC(=O)CCSc1ccccc1 (centres undefined)
i	CCc1ccc(S(=O)(=O)N2CCC(CSc3ccccn3)CC2)s1
i	O=C(c1ccccc1F)N1CC(c2nc(Cc3ccccc3)no2)C1
i	COC(=O)c1ccc(NC(=O)CN(C)C(=O)c2ccc(=O)[nH]c2)cc1
i	Cc1ccc(N2CC(C(=O)N3CCC(CSc4ccccn4)CC3)CC2=O)cc1 (centres undefined)
i	COc1ccc(S(=O)(=O)N(C)c2ccsc2C(=O)NCc2ccc(Cl)cc2)cc1
i	C=CCNC(=O)N1CCN(CC(O)c2ccco2)CC1 (centres undefined)
i	CC1(C)Cc2cccc(OCC(=O)Nc3cc(C4CC4)nn3-c3nc4c(c(=O)[nH]3)CCCC4)c2O1
i	O=S(=O)(NCC1(CO)CC1)c1ccc(F)c(Cl)c1
i	Cc1oc(-c2cccc([N+](=O)[O-])c2)cc1C(=O)Nc1cccc(F)c1
i	Cc1noc(C)c1CCC(=O)NCc1nn(C2CCCC2)c(=O)c2ccccc12
i	Cc1cc(C)nc(Nc2nc(C(=O)Nc3nc(C)c(C(=O)N(C)C)s3)cs2)n1
i	Cc1c(C(=O)NCCc2ccc(S(N)(=O)=O)cc2)nnn1-c1nc2c(s1)CCCC2
i	O=C(Cn1ncc(SCC(=O)NC2CC2)c(Cl)c1=O)Nc1cccc(F)c1
i	COc1cccc(-c2cc(C(=O)NCCn3nc(-n4nc(C)cc4C)ccc3=O)[nH]n2)c1
i	COc1ccc(-c2nc3c(c(=O)[nH]2)Cc2cc(Cl)ccc2O3)c(OC)c1

Pulled one by one from above, two records:
GIRK2 activ	Molecule
i	COc1ccc(CCNC(=O)N2CCC(Oc3ccc(C#N)cn3)CC2)cc1
i	Cc1cc(C)nc(Nc2nc(CC(=O)Nc3nc(-c4ccco4)cs3)cs2)n1

(more compounds)
GIRK2 activ	Molecule
i	COc1cccc2c1OC(C)C(=O)N(c1ccccc1SC)C2 (centres undefined)
i	Cc1ccccc1NS(=O)(=O)c1ccccc1
i	O=C(Cn1nc2c(c1NC(=O)c1ccc(Br)o1)CSC2)NCc1ccco1
i	O=C1CCc2ccc(OCCCCN3CCN(c4cccc(Cl)c4Cl)CC3)cc2N1
i	COc1cccc(C(O)=C2C(=O)C(=O)N(CCN(C)C)C2c2cc(OC)ccc2OC)c1 (centres undefined)
i	CCOc1ccc(NC(=O)c2cc3c(=O)n4ccccc4nc3n2CCCOC)cc1
i	Cc1nc(N2CCN(C(=O)c3cccc(F)c3)CC2)cc(-n2cccc2)n1
